Screens: PubChem BioAssay, several laboratories
YopH PTP inh = YopH (Yersinia) phosphatase inhibition. fluorescence Ex485/Em525. inhibition, %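 (about 10 µM by stock and volumes)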. hit rate 0.16% among 140,000. AID 898;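 active = inhibition of 50% or more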;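 note: controls were vehicle for no effect and minimum signal wells for full effect; inactives centre near -20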
Mtb growth = M. tuberculosis H37Rv growth inhibitors, H37Rv strain (AID 1626); M. tuberculosis H37Rv growth inhibition; higher % means a stronger effect; one-dose inhibition, % at 10 µM; IC50 in µM for titrated hits; hit rate 0.95% among 220,000;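 active = confirmed in a dose series; inconclusive = inhibition above 80% but not taken into the dose series; inactive = below 80% or under 30% at every dose of the series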;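 note: bacteria incubated seven days before Alamar blue readout; 0% = bacteria only wells and 100% = bacteria with antibiotic wells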
Arbovirus inh = blocks arbovirus infection | inhibition, % at 10 µM | AID 1251 | arbovirus infection cell-based antiviral screen | hit rate 0.37% among 200,000;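 active = inhibition from about 30%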;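 note: bluetongue infection of BSR cells; cell survival read as ATP light after 72 h; 0% = infected wells without compound and 100% = uninfected wells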
Mtb betalactam = beta-lactam sensitization of Mtb H37Rv; inhibition, % at 25 µM; M. tuberculosis H37Rv growth with meropenem, percent inhibition; hits of this screen are not shown here; hit rate 0.27% among 330,000;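 active = about 74% or more and at least 40 points above the plate without the antibiotic, then above 30% in a dose series; inconclusive = first-round hits that could not be retested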;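 note: growth measured after seven days incubation then overnight dye step; 0% = bacteria only wells and 100% = bacteria with antibiotic; twin plates without the antibiotic show which effects depend on it; some results filed as inactive read as strong as hits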
RecA splice inh = Mtb RecA intein splicing inhibition. hit rate 0.75% among 290,000. P9WHJ3. cell-free RecA intein splicing, fluorescence. AID 2221. inhibition, %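 (about 9 µM by stock and volumes)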; in the data active = inhibition above about 30%; inconclusive = no clear call, values can overlap the other calls;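 note: 0% = vehicle wells and 100% = reference inhibitor control wells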
Target sequence (P9WHJ3 whole entry, looked up, canonical isoform): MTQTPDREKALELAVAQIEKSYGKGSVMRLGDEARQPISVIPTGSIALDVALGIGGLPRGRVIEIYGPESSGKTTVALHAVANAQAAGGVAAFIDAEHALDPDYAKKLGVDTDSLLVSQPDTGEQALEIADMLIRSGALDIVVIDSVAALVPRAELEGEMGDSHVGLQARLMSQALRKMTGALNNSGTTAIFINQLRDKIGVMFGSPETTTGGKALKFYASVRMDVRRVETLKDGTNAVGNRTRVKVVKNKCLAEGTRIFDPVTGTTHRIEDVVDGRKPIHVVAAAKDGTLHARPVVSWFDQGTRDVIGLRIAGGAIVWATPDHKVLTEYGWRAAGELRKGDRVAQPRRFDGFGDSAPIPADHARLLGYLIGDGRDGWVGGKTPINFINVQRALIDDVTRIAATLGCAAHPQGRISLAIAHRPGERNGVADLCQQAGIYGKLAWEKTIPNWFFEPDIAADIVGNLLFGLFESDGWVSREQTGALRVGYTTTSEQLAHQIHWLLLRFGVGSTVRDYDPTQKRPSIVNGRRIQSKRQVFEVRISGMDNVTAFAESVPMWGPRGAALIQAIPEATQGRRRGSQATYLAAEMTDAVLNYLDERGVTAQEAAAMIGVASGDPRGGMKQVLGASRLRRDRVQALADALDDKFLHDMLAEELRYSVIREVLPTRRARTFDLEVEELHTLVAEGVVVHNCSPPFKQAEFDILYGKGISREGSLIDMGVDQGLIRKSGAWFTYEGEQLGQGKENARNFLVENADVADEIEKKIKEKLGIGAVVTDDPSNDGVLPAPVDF
Numbers without * were called inactive; ? = inconclusive; . = no result given. The list is partial. The share of hits here may be higher or lower than overall.

Second line of a record – RecA splice inh	Mtb growth	YopH PTP inh	Mtb betalactam	Arbovirus inh
CC(C)(C)C(=O)N1CCN(c2nc3ccc(Cl)cc3s2)CC1
 : -0.5	.	.	18	.
COc1ccc(OC)c(/C=N/NC(=O)CN2CCSCC2)c1
 : -1.3	-1%	-28	-1	-4
COc1ccc(CC(=O)Nc2ccccc2C(=O)N2CCOCC2)cc1OC
 : -3.4	-2%	-24	-1	-6
Cc1ccc(-c2csc(NC(=O)/C=C/c3ccco3)c2C(=O)O)cc1
 : 1.8	14%	.	22	71*
CC1CCC(CN2C(Nc3ccccc3)=NC[C@@H]2C)CC1 (stereo partly specified)
 : -0.4	.	.	-2	.
O=C(CCc1nc2ccccc2c(=O)[nH]1)NNC(=O)c1ccccc1Cl
 : -1.5	.	.	-13	.
Cc1ccc(Sc2cc(Cl)nc(N)n2)cc1
 : 2.4	9%	-15	-8	2
CCOc1ccc(OCc2ccc(C(=O)N3CCCCC3)o2)cc1
 : 2.0	.	.	-4	.
O=C(c1ccc2c(=O)n3c(nc2c1)CCCCC3)N1CCN(Cc2ccccc2)CC1
 : 1.4	-2%	-2	-4	0
CCCOc1ccc(Cc2c(Cl)nc(SC)nc2N(C)C)cc1
 : 2.4	2%	-27	21	22
CCN(CC)C(=O)c1sc2nc(-c3cccs3)cc(-c3cccs3)c2c1N
 : -8.8	5%	.	-6	.
COc1ccccc1CCC(=O)N1CCN(C(=O)c2ccccc2)CC1
 : -1.4	.	.	0	.
Cc1c(NC(=O)CN2C(=O)c3ccc([N+](=O)[O-])cc3C2=O)c(=O)n(-c2ccccc2)n1C
 : .	1%	.	0	13
O=C(O)CC1(CC(=O)Nc2ccc(Br)cc2)CCCCC1
 : 2.2	-10%	.	-2	4
OC(CON=C1c2ccccc2-c2ccccc21)CN1CCNCC1 (stereo unspecified)
 : 0.1	5%	.	2	-24
COc1ccccc1CN1CC(C(=O)N(C)CCc2nc3ccc(F)cc3[nH]2)CCC1=O (stereo unspecified)
 : 1.7	.	.	4	.
O=C(Nc1ccc(Cl)cc1Cl)NC1CCN(S(=O)(=O)c2ccc(F)cc2)CC1
 : -0.7	.	.	-5	.
O=C(Oc1ccccc1)c1ccc2nsnc2c1
 : 3.3	78%	5	64	-2
COC(=O)CNC(=O)CNC(=O)c1nn(-c2ccc(OC)c(Cl)c2)c(=O)c2ccccc12
 : 2.2	.	-27	43	2
Cc1ccc(C(=O)NCCN2CCOCC2)cc1S(=O)(=O)N1CCCCC1
 : -1.1	.	.	2	.
Cc1ccc(/C=C/C(=O)c2cc(Br)ccc2OC(=O)c2ccco2)cc1
 : 4.1	-6%	-7	65	-24
N#CC(c1ccc(O)cc1)N1CCOCC1 (stereo unspecified)
 : -1.6	-11%	-16	3	9
O=C(Nc1ccc(C(=O)Oc2ccccc2)c(O)c1)c1ccco1
 : 2.8	?	9	99	10
CCN(CC)CCN1C(=O)C(=O)/C(=C(/O)c2cccc(OC)c2)C1c1ccccn1 (stereo unspecified)
 : -1.6	3%	-44	-4	5
CCOc1cc(C2C(C#N)=C(N)OC3=C2C(=O)CC(C)(C)C3)cc([N+](=O)[O-])c1O (stereo unspecified)
 : 6.6	-5%	.	13	13
O=C(CC1C(=O)NCCN1C(=O)Nc1ccc(F)cc1)Nc1cc(Cl)ccc1Cl (stereo unspecified)
 : -1.3	9%	.	-1	.
CCOC(=O)C(Oc1ccc2c(-c3ccccc3)cc(=O)oc2c1C)c1ccccc1 (stereo unspecified)
 : 0.3	50%	-21	6	2
CCCn1c(N)c(C(c2ccc(OC)cc2)N2CCN(c3ccccc3)CC2)c(=O)[nH]c1=O (stereo unspecified)
 : 1.2	-1%	-1	0	-1
CCN1C(=O)C(=Cc2ccc(N3CCOCC3)o2)C(=O)N(CC)C1=S
 : -7.5	-1%	.	84	.
Cc1ccc(NC(=O)CS(=O)CC(=O)NCC2OCCc3ccccc32)c(C)c1 (stereo unspecified)
 : 0.0	-3%	-33	-7	1

Next part.
Second line of a record – RecA splice inh	Mtb growth	YopH PTP inh	Mtb betalactam	Arbovirus inh
COc1ccc(C(=O)Nc2ccc(O)c3c(=O)cc(-c4cccc(Cl)c4)oc23)cc1
 : -0.4	-4%	.	2	.
CC(C)OC(=O)c1c(NC(=O)CCC(=O)O)sc2c1CCCCC2
 : 4.0	-5%	-21	-10	4
COC(=O)c1ccc(COC(=O)C2CCN(S(=O)(=O)c3ccc(C)c(C)c3)CC2)o1
 : 8.9	.	.	26	.
NNc1ncnc2scc(-c3ccc(Cl)cc3)c12
 : 1.6	4%	-10	15	-24
CCCn1c(N/N=C\C=C\c2ccccc2)nc2c1c(=O)[nH]c(=O)n2C
 : -2.7	4%	.	70	-2
CCCOc1ccc(NC(=O)CC2C(=O)N(CC)C(=S)N2Cc2cccs2)cc1 (stereo unspecified)
 : -0.6	7%	-24	12	-31
COc1cccc(-c2nc(N3CCN(Cc4ccccc4)CC3)c3ccccc3n2)c1O
 : .	2%	.	-4	.
C=CCNC(=O)/C(=C/c1cn(-c2ccccc2)nc1-c1cccc([N+](=O)[O-])c1)NC(=O)c1ccccc1
 : 1.4	13%	-13	6	13
CCn1c(=O)c2sccc2n(Cc2cccc(C)c2)c1=O
 : 3.0	.	.	-4	.
CCCCC1=C([O-])C2N=CC=CC2=[N+](c2ccccn2)C1=O (stereo unspecified)
 : -4.4	7%	-10	-2	-2
O=C(COC(=O)c1ccc(O)cc1O)Nc1ccc(Cl)cn1
 : 0.5	.	.	15	.
Cc1ccc(NC(=O)N2CCC(C(=O)NCCC3=CCCCC3)CC2)cc1
 : 2.1	-9%	-35	15	-8
Cc1onc(-c2ccccc2Cl)c1C(=O)Nc1cccnc1
 : 1.1	0%	-5	-4	4
COC(=O)CCCC1=CC2=C(c3ccccc3)C(=O)C(C)(OC(=O)C3CCCC3)C(=O)C2=CN1C1CCCCC1 (stereo unspecified)
 : 12	1%	.	-4	.
O=C(c1ccco1)N1CCN(S(=O)(=O)c2ccccc2[N+](=O)[O-])CC1
 : -3.9	2%	.	-2	5
CCOC(=O)C1=C(COC(=O)c2ccc(C)s2)NC(=O)NC1C (stereo unspecified)
 : 0.6	.	.	-3	.
O=C(CCl)Nc1cc(S(=O)(=O)N2CCCCCC2)ccc1Cl
 : 67*	8%	-7	93	-8
Cc1cc(C)cc(N(CC(=O)NCC2CCCO2)C(=O)CN2C(=O)COc3ccccc32)c1 (stereo unspecified)
 : 0.2	-1%	-28	-12	-1
COc1cc(C(=O)N2CCc3ccccc32)c([N+](=O)[O-])cc1OC
 : 2.4	.	.	-1	.
Cc1ccc(S(=O)(=O)NN2C(=O)/C(=C/c3cccn3C)SC2=S)cc1
 : .	5%	-1	-8	-27
COc1cccc(CC(=O)Nn2c(C)nc3ccccc3c2=O)c1
 : -1.0	-4%	-23	-8	-8
COc1ccc(S(=O)(=O)N2CCOCC2)cc1NC(=O)CSc1n[nH]c(C(C)C)n1
 : .	-1%	.	-2	0
C/C(CC(=O)Nc1cc(C)ccn1)=N\NC(=O)c1cccc(C)c1
 : 70*	4%	.	3	2
O=C1N=c2ccccc2=C1c1sc(=O)[nH]c1O
 : 3.4	20%	.	64	.
Cc1ccc(C(=O)N2C(CC(=O)Nc3ccc(Cl)cc3)C(=O)NC3CCCCC32)cc1 (stereo unspecified)
 : 0.9	-8%	.	-2	-20
COc1ccccc1CN=C1Nc2ccccc2CS1
 : 5.7	3%	.	-6	21
O=C(CSc1cn(CCNC(=O)c2cccs2)c2ccccc12)NCc1ccccc1
 : -3.6	5%	-54	0	-1
CSc1ccc(S(=O)(=O)NCc2ccccc2Cl)cc1
 : 1.6	7%	-28	1	0
CCc1nnc(NC(=O)c2cc3c(s2)CCCCC3)s1
 : 0.2	-10%	9	0	.
CC1(C)CC(=O)C=C(c2ccc3[nH]ccc3c2)C1
 : 0.3	9%	.	15	.

More structures follow.
Second line of a record – RecA splice inh	Mtb growth	YopH PTP inh	Mtb betalactam	Arbovirus inh
CCOC(=O)C(=Cc1ccc(-c2ccsc2C(=O)OC)o1)C(=O)OCC
 : 2.1	-6%	-15	3	1
CC(C)OC(=O)c1cc(=O)[nH]c2ccccc12
 : 1.9	-7%	-15	-9	-6
O=C(Nc1ccc(NC(=O)c2ccco2)c(Cl)c1)c1cccc([N+](=O)[O-])c1
 : 0.8	-10%	.	0	-4
Cc1ccc(NC(=O)CS(=O)c2ccccc2N)c(C)c1 (stereo unspecified)
 : -4.2	.	.	-1	.
O=C(Cn1c(=O)oc2cc(S(=O)(=O)NCc3ccccc3)ccc21)NCc1ccco1
 : -1.8	6%	4	-1	3
O=C(CC1C(=O)NCCN1C(=S)Nc1ccccc1)Nc1ccc2c(c1)OCCO2 (stereo unspecified)
 : -1.7	-8%	19	?	1
Cc1ccc(C)c(-c2nnc(NC(=O)CS(=O)(=O)c3ccccc3)o2)c1
 : -0.8	.	.	90	.
COc1ccc(CCNC(=O)CCNC(=O)c2ccco2)cc1OC
 : -0.7	.	.	-1	.
O=C(NCC1CCCO1)C1CCN(C2CCN(C(=O)Cc3ccsc3)CC2)CC1 (stereo unspecified)
 : 2.9	-6%	.	4	7
O=C(NCc1ccco1)/C(=C/c1cccnc1)NC(=O)c1ccco1
 : -1.2	10%	-31	0	0
CCOc1ccc(/C=N/N2C(=O)C(CC(=O)Nc3ccc(F)cc3F)SC2=NC)cc1OC (stereo unspecified)
 : -5.5	10%	-30	-7	-1
CN(C)S(=O)(=O)N(CC(=O)N1CCN(c2ccccc2F)CC1)c1ccccc1
 : -0.7	-3%	.	-2	-2
Cc1nc(N2CCOCC2)nc(OCCN(C)C)c1[N+](=O)[O-]
 : .	5%	-33	-4	7
CC[C@]1(c2ccccc2OC)C(=O)N(C(=O)OC)N1C(=O)OC
 : 1.3	.	.	-3	.
COc1ccc(-c2csc(NC(=O)C3CC(=O)N(c4ccc5c(c4)OCCO5)C3)n2)cc1 (stereo unspecified)
 : 9.1	28%	-15	64	14
O=C(CCN1C(=O)c2cccc3cccc(c23)C1=O)Nc1ccccc1
 : -1.6	4%	.	-8	3
Cc1c(NC(=O)CN2C(=O)C(=O)N(Cc3ccccc3)C2=O)c(=O)n(-c2ccccc2)n1C
 : -2.9	-7%	.	-8	.
Cc1c([N+](=O)[O-])c2ccc(O)cc2n1-c1ccccc1
 : 0.3	-3%	.	2	.
CC(=N\O)/C(CN(C)C)=N/O
 : 2.4	-1%	-15	-11	-1
Cc1ccc(-c2nc3ncccc3o2)cc1NC(=O)c1ccccc1
 : 1.0	-7%	.	1	.
CC(C)Nc1nc(Oc2ccc(=O)n(-c3ccccc3)n2)nc(N(C)C)n1
 : 0.5	0%	.	-2	.
COc1cc(C(=O)NC(c2ccccc2)c2ccccc2)cc(OC)c1C
 : 0.2	.	.	-1	.
CCc1c(O)nc(N2CCN(Cc3ccccc3)CC2)[nH]c1=O
 : -0.3	-5%	-53	2	4
Cn1c(Oc2ccc(Cl)cc2)c(C=O)c2ccccc21
 : 0.4	6%	-10	-8	13
Cc1c(C(=O)Nc2cccnc2Cl)oc2ccccc12
 : 1.4	.	.	0	.
CC(=O)Oc1ccccc1/C=C1\CCOC1=O
 : -14	11%	9	9	5

Some entries already given, reduced to YopH PTP inh, Mtb betalactam and Mtb growth:
| Compound | YopH PTP inh | Mtb betalactam | Mtb growth |
| --- | --- | --- | --- |
| O=C(c1ccc2c(=O)n3c(nc2c1)CCCCC3)N1CCN(Cc2ccccc2)CC1 | -2 | -4 | -2% |
| CCc1c(O)nc(N2CCN(Cc3ccccc3)CC2)[nH]c1=O | -53 | 2 | -5% |
| Cc1ccc(NC(=O)N2CCC(C(=O)NCCC3=CCCCC3)CC2)cc1 | -35 | 15 | -9% |

An excerpt from above in order of molar mass, high to low.
Second line of a record – RecA splice inh	Mtb growth	YopH PTP inh	Mtb betalactam	Arbovirus inh
CCOc1ccc(/C=N/N2C(=O)C(CC(=O)Nc3ccc(F)cc3F)SC2=NC)cc1OC (stereo unspecified)
 : -5.5	10%	-30	-7	-1
COc1cc(C(=O)NC(c2ccccc2)c2ccccc2)cc(OC)c1C
 : 0.2	.	.	-1	.
Cn1c(Oc2ccc(Cl)cc2)c(C=O)c2ccccc21
 : 0.4	6%	-10	-8	13

Taken from above:
Entry of `CCc1c(O)nc(N2CCN(Cc3ccccc3)CC2)[nH]c1=O` in RecA splice inh: -0.3
Entry of `Cc1ccc(-c2nc3ncccc3o2)cc1NC(=O)c1ccccc1` in Mtb betalactam: 1
Entry of `Cc1nc(N2CCOCC2)nc(OCCN(C)C)c1[N+](=O)[O-]` in Arbovirus inh: 7
